Rce1 inhib: blocks yeast Ras-converting enzyme. hit rate 0.27% among 290,000. Q03530. yeast membranes, quenched prenylated peptide cleavage fluorescence. calls only;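 active means fall in fluorescence gain of 50% or more versus controls, with final raw signal at or below 3038400; inconclusive means same 50% fall but final raw signal above 3038400; inactive means fall in fluorescence gain under 50%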;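 further: plate controls were neutral control wells for no effect and wells lacking membranes for full effect; tested at 10 µM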
eIF4H FP inh: inhibitors of RNA binding by human eIF4H. Q15056. eIF4H fluorescence polarization binding assay. inhibition, % at 35 µM. hit rate 0.94% among 290,000. AID 2012;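 active means 50% or more with normal probe brightness, or confirmed in later tests; inconclusive means above 50% with abnormal brightness, or retests that disagree; inactive means below 50% or failed in later tests; about a fifth of its hits are not listed in these tables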;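 further: calls also rest on retests at 20 µM and on dose response follow-up; 0% = protein and probe with vehicle and 100% = probe without protein; strong numbers were not always called active; many hits fall short of the cut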
HIV Env fusion: HIV envelope-mediated fusion inhibition; HeLa-JRFL Env/CEM21 cell fusion, luciferase; hit rate 1.1% among 360,000; inhibition, % at 12.3 µM;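 active means mean replicate inhibition score of at least 50 and every replicate individually at or above 50; inconclusive means only one of the two criteria met; inactive means mean below 50 and not all replicates reaching 50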;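 further: 0% = plate neutral controls and 100% = maraviroc near 300 nM; one replicate is shown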
UUG fidelity: modulators of start codon recognition fidelity in yeast; S. cerevisiae UUG-firefly luciferase reporter, luminescence/redox ratio; activity score, % at 18.7 µM; hit rate 0.13% among 350,000;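 active means replicate mean at a twofold rise or more, about +100% in these data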;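 further: firefly luciferase made from a UUG start codon reports start codon fidelity; reporter light over untreated wells divided by growth signal over untreated wells; some hits fall short of that in this replicate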
MT1-MMP act inh: MT1-MMP (human) activation inhibition | P50281 | HT1080 RFP-PRO-GFP cells, GFP/RFP ratio fluorescence, overnight; percent of plate control window, DMSO zero | GFP/RFP ratio change, % at 20 µM | hit rate 0.061% among 360,000;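 active means GFP/RFP ratio change of at least 30% with cell ATP level not reduced by more than half and red fluorescence within 50% of control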; further: strong numbers were not always called active
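system = RFP-PRO-GFP reporter HT1080 cells | dosing = 20 µM single dose, 1% DMSO | timing = overnight cell settling, then overnight compound exposure, 37 °C, 5% CO2 | read-out basis = GFP/RFP fluorescence ratio | controls = DMSO and RFP-L50D-GFP cell wells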
CSC inhib: cancer stem cell inhibition; cancer stem cell-like cells viability, luminescence; inhibition, % at 7.5 µM; hit rate 1.1% among 300,000; AID 2717;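 active means mean at 75% or more and at least half the replicates too; inconclusive means mean and replicates disagree; tested in HMLE shEcad cells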;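 further: 0% = median of negative and 100% = median of positive control wells; the first replicate is given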
PABP polyA inh: blocks human PABP binding to poly(A) RNA. hit rate 1% among 290,000. fluorescence polarization. AID 2014. inhibition, % at 35 µM. P11940;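 active means 50% or more with normal probe brightness, or confirmed in later tests; inconclusive means above 50% with abnormal brightness, or retests that disagree; inactive means below 50% or failed in later tests; about a fifth of its hits are not listed in these tables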;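 further: calls also rest on retests at 20 µM and on dose response follow-up; controls were probe without protein and protein plus probe with vehicle; some compounds called inactive have numbers as strong as hits; many hits fall short of the cut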
Target sequence (P11940 whole entry, looked up): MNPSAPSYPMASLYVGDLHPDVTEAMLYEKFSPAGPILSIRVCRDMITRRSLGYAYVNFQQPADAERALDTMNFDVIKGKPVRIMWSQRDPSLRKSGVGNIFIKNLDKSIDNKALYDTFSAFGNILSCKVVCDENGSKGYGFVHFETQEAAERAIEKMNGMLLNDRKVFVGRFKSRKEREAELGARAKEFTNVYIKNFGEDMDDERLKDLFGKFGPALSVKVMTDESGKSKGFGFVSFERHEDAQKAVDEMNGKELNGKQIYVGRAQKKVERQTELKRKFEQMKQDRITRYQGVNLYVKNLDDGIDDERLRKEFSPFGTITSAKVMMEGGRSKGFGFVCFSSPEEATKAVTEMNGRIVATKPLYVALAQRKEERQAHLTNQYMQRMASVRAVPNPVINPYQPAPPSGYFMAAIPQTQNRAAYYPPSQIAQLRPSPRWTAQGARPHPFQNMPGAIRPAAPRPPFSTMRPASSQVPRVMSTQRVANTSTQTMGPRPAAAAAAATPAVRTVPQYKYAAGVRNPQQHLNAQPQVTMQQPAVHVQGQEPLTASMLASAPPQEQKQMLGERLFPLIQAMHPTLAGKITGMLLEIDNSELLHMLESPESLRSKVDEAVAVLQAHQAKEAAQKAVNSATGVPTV
MT1-MMP act inh RFP: also measured in MT1-MMP act inh; calls as there; RFP signal change, %; measured here: RFP expression control read;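 0 = vehicle wells; hits needed this value within 50% of zero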
* marks the source's active call; other numbers are inactive results; i = inactive; u = inconclusive; x = not tested or not shown. Compounds were not picked by outcome. Share with any hit: about 3%.

SMILES | Rce1 inhib | eIF4H FP inh | HIV Env fusion | UUG fidelity | MT1-MMP act inh | MT1-MMP act inh RFP | CSC inhib | PABP polyA inh
O=C(CSc1nc2ccccc2o1)N/N=C/c1ccco1 | i | -19 | -20 | -2 | 2 | 3 | 4 | 11
Cc1ccc(OCCCCN2CCCC(C)C2)c([N+](=O)[O-])c1 (configuration not stated) | i | 8 | 2 | x | 5 | 6 | 40 | 2
COC(=O)c1cc(Br)c(N)cc1OC | i | -8 | -8 | x | 4 | 5 | -4 | 2
Cn1c(-c2ccc(F)cc2)cnc1SCC(=O)N1CCCCC1 | i | 7 | -81 | -35 | 2 | -6 | -7 | 5
COP(=O)(OC)c1nc(-c2ccccc2)oc1NCc1ccccc1 | i | 4 | -2 | x | 3 | 1 | -9 | 11
CN1CCN(c2nc3ccccc3nc2C(C#N)C(=O)OC2CCCCC2)CC1 (configuration not stated) | i | 9 | 29 | 0 | -33 | -16 | 4 | 1
CSC1=NCCN1C(=O)c1c(-c2ccccc2Cl)noc1C | i | -1 | -9 | -5 | 1 | 8 | -7 | 0
O=C(CSc1nnc(-c2ccncc2)n1Cc1ccco1)c1ccc(Cl)cc1 | i | -5 | x | 2 | -1 | -4 | x | 6
CCN1CCN(c2nc(N)c([N+](=O)[O-])c(Nc3ccc(C)c(C)c3)n2)CC1 | i | 3 | -15 | -6 | 0 | -5 | -3 | -7
COCCNC(=O)Cn1cc2c(n1)CCC(C)C2 (configuration not stated) | i | -3 | 5 | -16 | -2 | 4 | 5 | -1
O=C(CCc1ccccc1)NC(=S)Nc1ccccc1[N+](=O)[O-] | i | 0 | -22 | -17 | 1 | 2 | -3 | -3
Cc1cc(NC(=O)C(C)SCC(=O)Nc2cc(Cl)ccc2N2CCN(C)CC2)no1 (configuration not stated) | i | x | -2 | -20 | 0 | 0 | -4 | x

Gathered by group, the entries above with a halogen (five)
SMILES | Rce1 inhib | eIF4H FP inh | HIV Env fusion | UUG fidelity | MT1-MMP act inh | MT1-MMP act inh RFP | CSC inhib | PABP polyA inh
COC(=O)c1cc(Br)c(N)cc1OC | i | -8 | -8 | x | 4 | 5 | -4 | 2
Cn1c(-c2ccc(F)cc2)cnc1SCC(=O)N1CCCCC1 | i | 7 | -81 | -35 | 2 | -6 | -7 | 5
CSC1=NCCN1C(=O)c1c(-c2ccccc2Cl)noc1C | i | -1 | -9 | -5 | 1 | 8 | -7 | 0
O=C(CSc1nnc(-c2ccncc2)n1Cc1ccco1)c1ccc(Cl)cc1 | i | -5 | x | 2 | -1 | -4 | x | 6
Cc1cc(NC(=O)C(C)SCC(=O)Nc2cc(Cl)ccc2N2CCN(C)CC2)no1 (configuration not stated) | i | x | -2 | -20 | 0 | 0 | -4 | x

(cont.)
SMILES | Rce1 inhib | eIF4H FP inh | HIV Env fusion | UUG fidelity | MT1-MMP act inh | MT1-MMP act inh RFP | CSC inhib | PABP polyA inh
COc1ccc(Br)cc1CNC(=O)C1CCN(S(=O)(=O)N2CCCCC2)CC1 | i | 7 | -28 | 4 | 1 | 1 | 0 | 9
Cn1c(SCc2ccc(Br)cc2)nc2c(c1=O)SCC2 | i | -5 | 22 | 5 | -4 | -20 | 4 | 4
Cc1ccc(-c2nc(CN(C)Cc3ccc4nccnc4c3)c(C)o2)s1 | i | 2 | 6 | x | 2 | 3 | -5 | 1
N#Cc1ccccc1NC(=O)COC(=O)CSc1nc2ccccc2o1 | i | -6 | x | -1 | 0 | 0 | 9 | 5
O=C(CNC(=O)c1ccccc1F)Nc1ccc2c(c1)CCC2 | x | x | x | -12 | -1 | 2 | -9 | x
C=CCn1c(=O)[nH]c2nc3cc(N=CN(C)C)c(C)cc3nc2c1=O | i | u | -9 | -11 | -93 | 1 | 6 | u
Cc1ccc(S(=O)(=O)/N=C2/C=C(C3C(=O)CC(C)(C)CC3=O)C(=O)c3ccccc32)cc1 | i | 6 | -141 | -35 | -9 | -6 | 9 | 24
COc1cccc(N(C(=O)c2snc(C(N)=O)c2N)C(C(=O)NCC2CCCO2)c2ccc3ncccc3c2)c1 (configuration not stated) | i | -5 | -9 | -5 | 0 | 2 | x | 0
COc1ccc(NC(=O)c2ccco2)c([N+](=O)[O-])c1 | i | 1 | x | -5 | 1 | 2 | 8 | -9
Cc1cc(C)n2nc(-c3cnn(C)c3C(F)(F)F)c(Cl)c2n1 | i | -1 | i | -2 | 5 | 0 | 5 | -4
CC(C)(C)NC(=O)Cn1c(=O)oc2cc(S(=O)(=O)N3CCc4ccccc43)ccc21 | i | 2 | -18 | -4 | -4 | -18 | -6 | 6
Cc1cc(NCc2ccco2)nc(N2CCC(C(=O)NC3CCCCC3)CC2)n1 | i | 2 | -5 | x | 0 | 1 | -13 | 13
CCCc1ccc2oc(C(=O)N(C)Cc3nccs3)c(C)c2c1 | i | -15 | -57 | -1 | -2 | -9 | 2 | -1
COc1cc(C(=O)OCC(=O)NC(=O)C2CCCCC2)ccc1OC(F)F | i | 8 | -6 | -1 | -2 | -2 | 4 | -25
Cc1c(NC(=O)NC(C)N2C(=O)C3C4C=CC(C4)C3C2=O)c(=O)n(-c2ccccc2)n1C (configuration not stated) | i | 0 | x | -12 | 0 | 3 | 3 | 2
CCCn1nc(C(=O)Nc2ccc(N3CCOCC3)cc2)c2ccccc2c1=O | x | x | x | -9 | -2 | -2 | -5 | x
CCOc1ccc(N=Nc2c(=O)[nH]n3c(C)cc(C)nc23)cc1 | i | 4 | x | x | 18 | 10 | 17 | 12
O=C(Nc1ncc(Cc2ccccc2Cl)s1)C1=NCCN1 | i | 7 | 3 | x | 11 | 8 | 13 | -10
O=[N+]([O-])c1ccc(CN2C=NS(=O)(=O)c3ccccc32)cc1 | i | -3 | -3 | x | 0 | 4 | -8 | 2
COCCn1c(N)c(N(Cc2ccccc2)C(=O)C(C)Oc2ccc(Br)cc2)c(=O)[nH]c1=O (configuration not stated) | x | x | -69 | -7 | -2 | -2 | x | x
CCN(CC)S(=O)(=O)c1cc(NC(=O)C(C)N(C)CC(=O)Nc2c(C)cccc2C)ccc1C (configuration not stated) | i | 4 | -59 | 11 | 2 | -5 | x | -10
CC1C(=O)N2CCCc3cc(NC(=O)C(=O)NCc4ccccn4)cc1c32 (configuration not stated) | i | x | -13 | -8 | 5 | 4 | -7 | x
CCOC(=O)c1c(S(=O)(=O)NCc2ccco2)c(C)n(C)c1C | i | -5 | 3 | -11 | 1 | -4 | -18 | -4
Cc1cccc2sc(NC(=O)CSc3nnnn3C)nc12 | i | -6 | -2 | 11 | -4 | -3 | -13 | -7
CCCCNC(=O)CN(c1cc(C(F)(F)F)ccc1Cl)S(C)(=O)=O | i | -8 | x | x | 6 | 4 | 1 | -2
COc1ccc(-c2cc(NC=O)c3ncc(-c4cccc(C(F)(F)F)c4)n3c2)c(OC)c1 | x | x | 15 | -18 | -9 | -7 | x | x
C/C(=N\NC(=O)CC(C)C)c1c(C(F)(F)F)[nH]n(-c2nc3ccccc3s2)c1=O | i | -6 | -24 | -30 | -3 | 0 | 21 | -1
COc1ccc(CN(CCCn2cnc3c(OC)ncnc32)CCCn2cnc3c(OC)ncnc32)cc1 | x | x | -22 | -22 | 1 | 3 | x | x
COc1ccc(CN2CCn3ncc(C(=O)Nc4ccc(Cl)cc4Cl)c3C2=O)cc1 | i | 2 | x | -18 | -1 | 1 | -5 | 6
Nc1cc(C(=O)O)c(Oc2ccc(Cl)cc2Cl)cc1C(=O)O | i | 2 | -3 | x | 1 | 1 | -11 | 13
CCCCn1c(O)c(C(CC)=Nc2ccc3c(c2)CCC3)c(=O)[nH]c1=O | i | -8 | 12 | -9 | -3 | 3 | -4 | 4
CCOC(=O)c1c(-c2ccc(C)o2)csc1NC(=O)CSc1nncs1 | i | 28 | x | -18 | 1 | -4 | x | 22
CCOc1ccccc1Nc1nnc(SCC(=O)NCC2CCCO2)s1 (configuration not stated) | x | x | 9 | x | 1 | 3 | -7 | x
O=C(O)CC1(CC(=O)Nc2cc3ccccc3cn2)CCCCC1 | i | 2 | -10 | 3 | -4 | 3 | -10 | 0
CCSc1n[nH]c2nc3c(c(=O)n12)C1(CCCCC1)Cc1ccccc1-3 | i | 7 | -9 | 4 | 2 | -1 | 5 | -10
Fc1ccc2c(-c3cccc(C(F)(F)F)c3)c(-c3ccccc3)ncc2c1 | x | x | 69* | -21 | -5 | -10 | 41 | x
CCn1c(=O)c(C(=O)CN2CCc3ccccc32)c(N)n(Cc2ccccc2)c1=O | i | u | -5 | x | 4 | 13 | 4 | -18
CCC(=O)Nc1cccc(-n2nnnc2SCC(=O)NCc2ccco2)c1 | i | 3 | x | 3 | -4 | 0 | -1 | 13
CCN1C(=O)[C@H]2[C@@H](c3ccc(C)cc3)N3C(=O)N(c4ccc(C(F)(F)F)cc4)C(=O)[C@@]3(CC(C)C)[C@H]2C1=O | i | -11 | 115* | -4 | -3 | -7 | 2 | -12
Cc1cc(C(=O)NC2=NCCS2)cs1 | i | 3 | -29 | x | 5 | 3 | -6 | 7
O=C(NNS(=O)(=O)c1c(F)cc(F)c(Cl)c1F)C12CC3CC(CC(C3)C1)C2 | x | x | x | -6 | 0 | -1 | -13 | x
CC(=O)c1cccc(NC(=O)C(C)OC(=O)Cc2n[nH]c(=O)c3ccccc23)c1 (configuration not stated) | i | -6 | -5 | -19 | -2 | -1 | -9 | -2
CC1CCOC2(O1)C(=O)Nc1ccccc12 (configuration not stated) | i | -1 | -6 | x | 1 | 7 | -11 | -2
COc1ccc(N=C2SC(CC(=O)Nc3ccccc3)C(=O)N2CC2CCCO2)cc1 (configuration not stated) | x | -5 | x | 14 | 8 | 1 | x | -2
CCN(CC)S(=O)(=O)c1cccc(-c2n[nH]c(=S)n2/N=C/c2ccc(Br)cc2)c1 | i | 2 | -6 | x | 4 | 1 | 7 | 9
O=C(NC1CCCCCC1)c1cc(S(=O)(=O)N2CCCCC2)ccc1N1CCOCC1 | i | -7 | 0 | 12 | 2 | 2 | -6 | -9
COc1ccc(C(=O)O)cc1S(=O)(=O)N1CCN(c2ccccn2)CC1 | i | 3 | 6 | -11 | 0 | 2 | -6 | 12
COc1cccc(/C=C2/C(=O)NN(c3ccc(C)c(C)c3)C2=O)c1 | i | -9 | -4 | -12 | -3 | -3 | 6 | 1
CCc1ccc(-c2cc(C)no2)cc1S(=O)(=O)Nc1ccc(Cl)cn1 | i | -11 | 2 | -16 | -3 | 0 | -7 | 12
Cc1cc(C)c(-n2nnnc2SC(C)C)c(C)c1 | i | 3 | -12 | x | -1 | 2 | 8 | -9
CNc1c(NS(=O)(=O)c2cc(NC(C)=O)ccc2C)c(=O)oc2ccccc12 | i | -8 | 3 | -22 | 3 | 4 | 14 | 1

Only CSC inhib, MT1-MMP act inh RFP and UUG fidelity, for 2 of the compounds above:
Molecule,CSC inhib,MT1-MMP act inh RFP,UUG fidelity
Cc1cc(C)n2nc(-c3cnn(C)c3C(F)(F)F)c(Cl)c2n1,5,0,-2
CC(C)(C)NC(=O)Cn1c(=O)oc2cc(S(=O)(=O)N3CCc4ccccc43)ccc21,-6,-18,-4

Screening data: PubChem, several laboratories
